# PABP polyA inh: blocks human PABP binding to poly(A) RNA | P11940 | fluorescence polarization | inhibition, % at 35 µM | 290,000 tested, 1% active;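 active = 50% or more with normal probe brightness, or confirmed in later tests; inconclusive = above 50% with abnormal brightness, or retests that disagree; inactive = below 50% or failed in later tests; about a fifth of its hits are not listed in these tables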;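 also: calls also rest on retests at 20 µM and on dose response follow-up; controls were probe without protein and protein plus probe with vehicle; some compounds called inactive have numbers as strong as hits; many hits fall short of the cut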
# Rce1 inh: blocks yeast Ras-converting enzyme. Q03530. yeast membranes, quenched prenylated peptide cleavage fluorescence. calls only. 290,000 tested, 0.27% active. AID 2563;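 active = fall in fluorescence gain of 50% or more versus controls, with final raw signal at or below 3038400; inconclusive = same 50% fall but final raw signal above 3038400; inactive = fall in fluorescence gain under 50%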;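 also: plate controls were neutral control wells for no effect and wells lacking membranes for full effect; tested at 10 µM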
# Target sequence (Q03530 whole entry, looked up): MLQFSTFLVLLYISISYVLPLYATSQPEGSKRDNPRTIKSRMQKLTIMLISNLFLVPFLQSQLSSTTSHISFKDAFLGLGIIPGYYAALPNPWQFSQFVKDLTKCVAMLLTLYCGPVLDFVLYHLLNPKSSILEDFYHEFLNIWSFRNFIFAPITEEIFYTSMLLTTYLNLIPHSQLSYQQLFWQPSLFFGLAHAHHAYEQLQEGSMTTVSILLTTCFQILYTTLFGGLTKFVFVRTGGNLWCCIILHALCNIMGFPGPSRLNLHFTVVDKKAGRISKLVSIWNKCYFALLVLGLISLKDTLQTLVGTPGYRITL
# Env fusion inh: inhibitors of HIV Env-mediated cell fusion. HeLa-JRFL Env/CEM21 cell fusion, luciferase. 360,000 tested, 1.1% active. inhibition, % at 12.3 µM;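 active = mean replicate inhibition score of at least 50 and every replicate individually at or above 50; inconclusive = only one of the two criteria met; inactive = mean below 50 and not all replicates reaching 50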;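 also: 0% = plate neutral controls and 100% = maraviroc near 300 nM; one replicate is shown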
# Yeast UUG start: modulators of start codon recognition fidelity in yeast; S. cerevisiae UUG-firefly luciferase reporter, luminescence/redox ratio; activity score, % at 18.7 µM; 350,000 tested, 0.13% active; AID 602363;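 active = replicate mean at a twofold rise or more, about +100% in these data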;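 also: firefly luciferase made from a UUG start codon reports start codon fidelity; reporter light over untreated wells divided by growth signal over untreated wells; some hits fall short of that in this replicate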
# MT1-MMP act inh: MT1-MMP (human) activation inhibition; P50281; HT1080 RFP-PRO-GFP cells, GFP/RFP ratio fluorescence, overnight; percent of plate control window, DMSO zero; GFP/RFP ratio change, % at 20 µM; 360,000 tested, 0.061% active; AID 651647;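 active = GFP/RFP ratio change of at least 30% with cell ATP level not reduced by more than half and red fluorescence within 50% of control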; also: strong numbers were not always called active
#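 Test system: HT1080 RFP-PRO-GFP cells; Benchmarks: DMSO and RFP-L50D-GFP cell wells; Timing: cells overnight before dosing, compound overnight, 37 °C, 5% CO2; Compound: one 20 µM compound dose with 1% DMSO; Read-out: GFP/RFP fluorescence ratio.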
# CSC inhib: blocks cancer stem cells. cancer stem cell-like cells viability, luminescence. 300,000 tested, 1.1% active. inhibition, % at 7.5 µM;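 active = mean at 75% or more and at least half the replicates too; inconclusive = mean and replicates disagree; tested in HMLE shEcad cells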;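 also: 0% = median of negative and 100% = median of positive control wells; the first replicate is given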
# eIF4H FP inh: inhibitors of RNA binding by human eIF4H | inhibition, % at 35 µM | 290,000 tested, 0.94% active | eIF4H fluorescence polarization binding assay | AID 2012;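 active = 50% or more with normal probe brightness, or confirmed in later tests; inconclusive = above 50% with abnormal brightness, or retests that disagree; inactive = below 50% or failed in later tests; about a fifth of its hits are not listed in these tables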;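 also: calls also rest on retests at 20 µM and on dose response follow-up; 0% = protein and probe with vehicle and 100% = probe without protein; strong numbers were not always called active; many hits fall short of the cut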
# eIF4H FP inh retest: second read-out of eIF4H FP inh, no call of its own (marks repeat the call); inhibition, %; compound at 20 µM; confirmation average;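 mean of two retest wells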
# PABP polyA inh retest: further read-out of PABP polyA inh, marked with its call; inhibition, %; compound at 20 µM; confirmation repeats;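 mean of two retest wells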
# MT1-MMP act inh RFP: further read-out of MT1-MMP act inh, marked with its call; RFP signal change, %; measured here: RFP expression control read;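 0 = vehicle wells; hits needed this value within 50% of zero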
# Numbers without * were called inactive; i = inactive; ? = inconclusive; . = no result given.
SMILES,PABP polyA inh,Rce1 inh,Env fusion inh,Yeast UUG start,MT1-MMP act inh,MT1-MMP act inh RFP,CSC inhib,eIF4H FP inh,others
CC1CCN(S(=O)(=O)c2cccc(C(=O)Nc3ccccc3)c2)CC1,0,i,1,.,2,-2,-5,-6,
COc1ccc(/C=C(\NC(=O)/C=C/c2ccco2)C(=O)NCCc2nc3ccccc3[nH]2)cc1,4,i,11,.,-7,-1,0,26,
CCOC(=O)N1CCN(C(=O)c2ccc(CS(=O)(=O)c3ccc(OC)cc3)o2)CC1,-1,i,10,10,-2,0,.,2,
Cc1cc(N2CCN(C)CC2)nc2ccc(NC(=O)c3cccnc3Cl)cc12,-4,i,-12,-10,-4,-1,-12,-2,
Cc1ccc(Oc2c(F)c(F)nc(N3CCCC3)c2F)cc1,-9,i,.,.,2,1,18,-6,
CC(C)C(=O)Nc1nnc(CCc2ccccc2)s1,6,i,5,-17,3,2,3,-4,
CC1CCCC(C)N1CCCNC(=O)c1nn(C)c2c1CSc1ccccc1-2 (configuration not stated),.,i,80*,10,4,-1,-7,.,
COc1cc(/C=N/n2cnc3c(sc4nc(C)cc(C)c43)c2=O)ccc1O,0,i,.,.,.,.,10,-2,
Cc1ccc(C2(CCNCc3ccco3)CCOC(C(C)C)C2)cc1 (configuration not stated),2,i,16,-16,-3,-2,0,0,
COc1ccc(-c2ccc(CN3C(C(C)C)C(=O)N(Cc4cn(Cc5ccco5)nn4)CCS3(=O)=O)cc2)cc1 (configuration not stated),.,.,4,-4,-1,-1,.,.,
Cc1cc2nc3c(nc2cc1C)C(O)=C3O,8,i,-8,-21,1,5,-10,-5,
CCOc1ccc(N(CC(=O)N2CCCC2)S(=O)(=O)c2c(C)noc2C)cc1,-3,i,-2,-7,-2,7,5,-3,
CCc1ccc(-c2nn(-c3ccccc3)cc2CSC(=N)N)cc1,-10,i,.,.,.,.,118*,-16,
O=C(Nc1ccc(Cl)cc1)C1CCN(C(=O)c2ccco2)CC1,-7,i,5,21,4,7,-12,-9,
Cc1nn(Cc2c(Cl)cccc2Cl)c(C)c1NC(=O)c1sc2ccccc2c1Cl,-2,i,.,-5,1,0,-3,2,
COc1cccc(/C(O)=C2/C(=O)C(=O)N(CCCN3CCOCC3)C2c2ccncc2)c1 (configuration not stated),2,i,-35,6,-6,-2,-5,-8,
COc1ccc(C(C)=O)cc1CN1CCCCC1,4,i,10,-3,11,8,-9,12,
O=C(C1CCN(S(=O)(=O)c2ccc(-n3cnnn3)cc2)CC1)N1CCCCC1,2,i,6,-16,3,-9,.,13,
Cn1c(SCC(=O)c2ccccc2)nnc1C1COc2ccccc2O1 (configuration not stated),8,i,-6,-7,3,3,4,3,
CN(C)CCCNc1cn[nH]c(=O)c1Cl,-6,i,.,-22,2,5,-10,-3,
CCOc1ccccc1N(CC(=O)NCCc1ccc(OC)c(OC)c1)S(=O)(=O)c1ccccc1,2,i,9,9,-4,-4,.,-8,
COc1ccccc1-c1sc2ccccc2c1C#CC1(O)CCCCC1,.,.,22,-5,4,2,105*,.,
O=C(N/N=C/c1ccco1)c1cc(-c2ccccc2)n[nH]1,-8,i,.,-15,2,2,-1,81,eIF4H FP inh retest=2;PABP polyA inh retest=3
CSc1cccc(NCc2ccc([N+](=O)[O-])cc2)c1,21,i,-6,-36,1,0,-11,9,
Oc1cccc2ccc(/C=C/c3cccs3)nc12,4,i,-181,-52,1,-2,53,10,
# (list continues)
SMILES,PABP polyA inh,Rce1 inh,Env fusion inh,Yeast UUG start,MT1-MMP act inh,MT1-MMP act inh RFP,CSC inhib,eIF4H FP inh,others
Cc1cc(Cl)cc(Cl)c1OCC(=O)NCc1ccco1,5,i,-23,-4,-1,2,8,6,
Cc1nc(S(=O)(=O)Nc2ccccc2C(=O)NCC2CC2)cn1C,4,i,3,-7,1,5,-14,-7,
Oc1ccc(/C=N/Nc2ccc(C(F)(F)F)cn2)cc1O,-4,i,-27,.,.,.,.,3,
CCc1ccc(/C=C2\SC(=S)N(CCCC(=O)Nc3cc(C)on3)C2=O)cc1,.,.,36,-11,2,2,.,.,
O=C(N/N=C/c1ccccn1)c1ccco1,-7,i,-13,-16,-1,2,-9,-5,
CCCN1CCC(NC(=O)Nc2cccc3ccccc23)CC1,-1,i,?,-25,0,2,-11,-4,
COc1cccc(N2CCN(C(=O)C3C4C=CC5(CN(Cc6ccccc6Cl)C(=O)C35)O4)CC2)c1 (configuration not stated),10,i,0,.,1,1,-9,7,
Cc1c(C(=O)N2CCN(c3ccccc3)CC2)sc2nc3n(c(=O)c12)CCC3,-5,i,29,.,2,2,-3,2,
CC(=O)c1cccc(NC(=O)C2C3CCC(C3)C2C(=O)O)c1 (configuration not stated),0,i,-15,0,1,3,-15,2,
COc1cccc(NC(=O)N(CCN(C)C)C(C)c2cccnc2)c1 (configuration not stated),-2,i,2,-19,2,4,-16,9,
Cc1cc(C(=O)N2CCCC(CO)(Cc3ccc(F)cc3F)C2)nn1C (configuration not stated),.,.,-9,-8,1,4,.,.,
O=C(N/C(=C\c1ccc([N+](=O)[O-])cc1)C(=O)N1CCCCC1)c1ccccc1,12,i,-5,.,4,-1,13,-3,
CCOC(=O)C1(Cc2ccccc2C)CCCN(S(C)(=O)=O)C1 (configuration not stated),-3,i,16,-8,-3,2,-8,0,
O=C(c1cccnc1NCc1ccccc1)N1CCOCC1,5,i,4,-18,-10,-2,-16,-3,
Cc1nc(N2CCCCC2)c2sc(=S)n(C)c2n1,-8,i,11,-7,3,-19,-7,1,
Cc1ccc(NCc2ccc([N+](=O)[O-])s2)cc1,3,i,12,-5,-1,4,?,0,
Cc1nc(=O)c(-c2ccccc2)c(C)n1-c1ccc(Br)cc1,-10,i,-135,-12,0,4,-11,-3,
O=C(C1CCCN(S(=O)(=O)c2cnc[nH]2)C1)N1CCN(c2ccc(Cl)cc2)CC1 (configuration not stated),-11,i,-65,-18,-2,-12,-10,8,
CCc1ccc2nc(N(CCCN(C)C)C(=O)c3ccc(S(=O)(=O)N(C)C4CCCCC4)cc3)sc2c1,-10,i,-18,16,0,-5,52,-9,
CCOC(=O)CNC(=O)N1CCCC(C(=O)c2cccc(Cl)c2)C1 (configuration not stated),-2,i,18,.,-2,2,-10,-4,
Cc1ccc(C(=O)O)cc1NCc1cccnc1,.,.,7,-15,-2,4,.,.,
Cc1ccccc1C(=O)NNC(=O)/C=C/c1ccccc1,11,i,0,-20,-1,0,0,-1,
COc1ccc([C@H]2CC(=O)C=C(c3ccccc3-c3ccccc3)C2)cc1,.,.,42,-1,.,.,68,.,
Cc1nn(CC(=O)NC(=O)NC2CCCC(C)C2C)c(=O)c(C#N)c1C (configuration not stated),.,i,-6,.,2,-2,-16,.,
CC1CN(c2cnn(C(C)C)c(=O)c2Cl)CC(C)O1 (configuration not stated),2,i,2,-16,3,2,-4,-7,
# The list continues.
SMILES,PABP polyA inh,Rce1 inh,Env fusion inh,Yeast UUG start,MT1-MMP act inh,MT1-MMP act inh RFP,CSC inhib,eIF4H FP inh,others
O=C(O)c1ccc(CN2C(=O)c3ccc(C(=O)O)cc3C2=O)cc1,0,i,0,28,-3,2,-6,-4,
CC(C)CCn1nnnc1CN1CCN(c2ccc(F)cc2)CC1,-3,.,5,.,5,6,-1,-1,
COc1ccc(C(=O)NNC(=O)CN2CCC(n3nnc4cc(C)ccc43)CC2)cc1,12,i,-15,-10,-6,-3,-9,14,
CN1OC[C@@H]2CN(Cc3ccc4c(c3)OCO4)[C@H](c3ccc(N4CCCCC4)cc3)C[C@@H]21,.,.,-4,-3,-1,-4,.,.,
COc1ccccc1CNC(=O)c1cc(-c2cc(F)ccc2OC)n[nH]1,.,.,-53,-23,-2,-2,.,.,
N#CC1=C(N)NC(SCC(=O)c2ccc(Br)cc2)=C(C#N)C12CCCCC2,-8,i,42,-6,5,1,47,-12,
Cc1c(C(=O)N2CCN(c3ccc(F)cc3)CC2)sc2nc3n(c(=O)c12)CCC3,4,i,-1,-16,1,2,-14,3,
C=CCOC(=O)C1=C[C@H](c2cn(C(C)=O)c3ccccc23)[C@@H](CCCO)[C@H](OCC)O1,3,i,0,14,3,3,12,0,
CC(C)OC(=O)C1C(=O)CC(C)(O)C(C(=O)OC(C)C)C1c1cccnc1 (configuration not stated),2,i,-20,-9,4,4,-10,-7,
COc1ccc(/C=N/OC/C(O)=C(\C#N)c2nc3ccccc3[nH]2)cc1OC,19,i,-1,-2,1,2,-4,5,
CN1CCN(CCCNC(=S)Nc2ccc(F)c(Cl)c2)CC1,5,i,-3,-8,0,6,-2,2,
COc1ccc(Cl)cc1NC(=O)COC(=O)c1cc(NS(=O)(=O)c2cccs2)ccc1O,7,i,18,-2,6,0,16,6,
CCCN(Cc1cc2cc(OC)ccc2[nH]c1=O)C(=O)c1ccncc1,-1,i,.,.,3,0,7,5,
Cc1ccc(-c2cc(C(=O)O)n(-c3ccc(S(N)(=O)=O)cc3)n2)cc1,1,i,-1,-15,-2,1,-8,-3,
CC(C)c1nnc(NC(=O)C2CCCN2C(=O)Nc2cccc(Cl)c2)s1 (configuration not stated),6,i,8,-12,1,4,11,0,
O=C(Nc1cn(-c2ccccc2)nc1-c1ccccc1)c1ccccc1,2,i,6,.,-2,0,-3,1,
CC1CCN(S(=O)(=O)c2ccc(NC(=O)CN3CCCC3)cc2)CC1,-8,i,-3,-5,0,-1,59,-3,

# At a glance, 13 of the compounds above:
SMILES,PABP polyA inh,Rce1 inh,Env fusion inh,Yeast UUG start,MT1-MMP act inh,MT1-MMP act inh RFP,CSC inhib,eIF4H FP inh,others
COc1ccccc1CNC(=O)c1cc(-c2cc(F)ccc2OC)n[nH]1,.,.,-53,-23,-2,-2,.,.,
N#CC1=C(N)NC(SCC(=O)c2ccc(Br)cc2)=C(C#N)C12CCCCC2,-8,i,42,-6,5,1,47,-12,
Cc1c(C(=O)N2CCN(c3ccc(F)cc3)CC2)sc2nc3n(c(=O)c12)CCC3,4,i,-1,-16,1,2,-14,3,
C=CCOC(=O)C1=C[C@H](c2cn(C(C)=O)c3ccccc23)[C@@H](CCCO)[C@H](OCC)O1,3,i,0,14,3,3,12,0,
CC(C)OC(=O)C1C(=O)CC(C)(O)C(C(=O)OC(C)C)C1c1cccnc1 (configuration not stated),2,i,-20,-9,4,4,-10,-7,
COc1ccc(/C=N/OC/C(O)=C(\C#N)c2nc3ccccc3[nH]2)cc1OC,19,i,-1,-2,1,2,-4,5,
CN1CCN(CCCNC(=S)Nc2ccc(F)c(Cl)c2)CC1,5,i,-3,-8,0,6,-2,2,
COc1ccc(Cl)cc1NC(=O)COC(=O)c1cc(NS(=O)(=O)c2cccs2)ccc1O,7,i,18,-2,6,0,16,6,
CCCN(Cc1cc2cc(OC)ccc2[nH]c1=O)C(=O)c1ccncc1,-1,i,.,.,3,0,7,5,
Cc1ccc(-c2cc(C(=O)O)n(-c3ccc(S(N)(=O)=O)cc3)n2)cc1,1,i,-1,-15,-2,1,-8,-3,
CC(C)c1nnc(NC(=O)C2CCCN2C(=O)Nc2cccc(Cl)c2)s1 (configuration not stated),6,i,8,-12,1,4,11,0,
O=C(Nc1cn(-c2ccccc2)nc1-c1ccccc1)c1ccccc1,2,i,6,.,-2,0,-3,1,
CC1CCN(S(=O)(=O)c2ccc(NC(=O)CN3CCCC3)cc2)CC1,-8,i,-3,-5,0,-1,59,-3,

# Screening data from PubChem.

# Not all compounds are listed; rates above refer to the full screens.
